# Resorufin autofl = compound fluoresces in the resorufin spectral region; Compound fluorescence, resorufin region 547/598 nm, buffer; hits give high values; max dye-equivalent concentration, M; 59,000 compounds, 0.04% hits; active = above 10 nM dye equivalent; inconclusive = 1 to 10 nM; inactive = 1 nM or less; a few of its hits are not listed in these tables; further: highest value over a series up to 38 µM
#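 Compounds in 100 mM Tris buffer, pH 8.0, incubated 15 min at room temperature, then read with 547 nm excitation and 598 nm emission filters. Fluorescence was converted to dye-equivalent concentration using an on-plate six-point resorufin standard curve.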
# TSHR agonist = activates the human thyroid stimulating hormone receptor; AID 926; 73,000 compounds, 0.48% hits; HEK293-CNG-TSHR cells (CNG channel as cAMP sensor), membrane potential dye, cAMP; Potency, µM (titrated, usually from 57.1 µM), for inactives: at the top dose activation, most hits filed as activators; active = well fitted activation curve of enough size with the parental cells flat; inconclusive = any curve in the parental cells; inactive = parental cells flat and receptor cells flat or falling; further: potency means the concentration at half of the fitted maximal effect; % of control where 0% means no effect; weak receptor curves with flat parental cells got no call and are not listed
# Target sequence (P16473 whole entry, looked up): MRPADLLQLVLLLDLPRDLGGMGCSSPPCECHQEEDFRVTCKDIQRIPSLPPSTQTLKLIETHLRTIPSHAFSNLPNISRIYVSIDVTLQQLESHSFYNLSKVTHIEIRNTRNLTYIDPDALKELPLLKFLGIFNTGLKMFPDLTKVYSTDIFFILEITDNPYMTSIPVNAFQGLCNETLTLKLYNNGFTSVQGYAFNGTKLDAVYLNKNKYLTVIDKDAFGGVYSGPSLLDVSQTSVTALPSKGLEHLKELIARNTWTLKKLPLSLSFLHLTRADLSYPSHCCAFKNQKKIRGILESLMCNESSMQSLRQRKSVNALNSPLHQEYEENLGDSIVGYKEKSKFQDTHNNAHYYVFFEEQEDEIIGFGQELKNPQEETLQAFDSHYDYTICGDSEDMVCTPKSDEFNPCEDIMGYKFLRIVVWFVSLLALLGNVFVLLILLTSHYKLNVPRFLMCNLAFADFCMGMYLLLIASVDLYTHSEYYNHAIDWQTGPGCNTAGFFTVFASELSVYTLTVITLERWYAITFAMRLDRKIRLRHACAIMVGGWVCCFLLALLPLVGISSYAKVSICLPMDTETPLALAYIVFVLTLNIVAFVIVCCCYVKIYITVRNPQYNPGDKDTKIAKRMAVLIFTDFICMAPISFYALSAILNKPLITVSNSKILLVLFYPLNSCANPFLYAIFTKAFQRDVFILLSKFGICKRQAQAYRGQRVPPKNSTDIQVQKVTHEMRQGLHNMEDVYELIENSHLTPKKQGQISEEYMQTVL
#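 cAMP rise detected as CNG-channel membrane depolarization by fluorescent dye (emission 590 nm), 30 min after compound, following 60 min dye loading containing 100 uM RO 20-1724 at room temperature. Cells: TSHR/CNG HEK 293, with parental CNG HEK 293 as control.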
# AID923 = qHTS Assay for Allosteric/Competitive Inhibitors of Caspase-1: Spectroscopic Profiling in AFC Spectral Region | compound fluorescence, AFC spectral region (405/520 nm); almost no hit is shown here | Potency, µM (titrated, usually from 57.5 µM), inactives show at the top dose fluorescence increase, usual class: activators | 75,000 compounds, 1.1% hits | AID 923, 2007; active means well fitted activation curve with a large enough effect; inconclusive means small, poorly fitted or top-dose-only effect;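 further: potency means the concentration at half of the fitted maximal effect; 0% is about no effect; scaled to a free AFC standard on each plate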
#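 Titrations up to 57 uM read every 20 sec for 3 min (405/520 nm) with 50 nM caspase 1 and 5 uM Ac-WEHD-AFC, pH 7.5 HEPES buffer. Fluorescence-vs-time intercept gave baseline, scaled against on-plate AFC standard.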
# A647 fluor = compound autofluorescence in A647 spectral region | max dye-equivalent concentration, M | 59,000 tested, under 10 active | Compound fluorescence, A647 channel (570/671 nm), Tris buffer | AID 592; active means above 1 µM dye equivalent; inconclusive means 0.1 to 1 µM; inactive means 0.1 µM or less;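 further: values scaled relative to a standard on each plate; highest value over a series up to 38 µM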
#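 Buffer was dispensed, compounds and Alexa 647 standards were pin-transferred, and plates sat 15 min at room temperature. Intensity at 570/671 nm was then converted to dye-equivalent concentration using the plate's A647 standard curve.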
# A488 fluor = compound fluoresces in the A488 spectral region. max dye equivalency, M. compound autofluorescence, A488 spectral region, dye equivalency; hits give high values. 59,000 compounds, 0.1% hits. AID 591; active = above 10 nM dye equivalent; inconclusive = 1 to 10 nM; inactive = 1 nM or less; about half of its hits are not listed in these tables;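 further: highest value over a series up to 38 µM; compound alone in buffer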
#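 Autofluorescence read at ex 480/em 540 nm after 15 min RT in 100 mM Tris pH 8.0; compound signal normalized to A488 standard series on each plate, reported as dye-equivalent concentration at each test concentration.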
# Starred values were filed as active, the others as inactive; i = inactive; ? = inconclusive; / = not tested or not shown; [ ] = another dose, or the depositor's remark. This is a subset; count on the stated rates, not on these rows.
SMILES,Resorufin autofl,TSHR agonist,AID923,A647 fluor,A488 fluor
Cc1ccc(-n2ncc3c(=O)n(Cc4cccnc4)cnc32)cc1,i,18%,0.4%,2.1e-08,i
COc1ccc(-n2c(=O)c(-c3ccccc3)nc3cncnc32)cc1,i,-1%,1.7%,1e-09,i
O=C(O)c1ccc(Cl)c(Cl)c1,/,?,-0.2%,/,/
CN1C(=O)CS(=O)c2ccc(C(=O)NC3CC3)cc21 (stereo not drawn),/,-3%,-0.9%,/,/
Cc1cc(C(=O)OCC(=O)Nc2ccc(F)cc2F)c(C)o1,i,1%,-1.2%,1e-09,i
COc1ccc(CC(=O)NC2CCN(CC(=O)Nc3ccc4c(c3)OCCO4)CC2)cc1OC,i,4%[11.4 µM],0.1%,2.1e-09,i
CC1(C(=O)NC2CCCCCCC2)CCC(=O)N1CCN1CCOCC1 (stereo not drawn),i,5%,-3.5%,2.4e-08,i
CC(=O)NC(Cc1ccccc1)C(=O)NC1CCN(C(=O)NC2CCCCC2)CC1 (stereo not drawn),i,8%,-2.5%,1.3e-08,i
Cc1ccc(NC2c3ncccc3C(=O)N2c2ccccc2C)cc1C (stereo not drawn),i,/,2.2%,3.3e-08,i
CSc1ccccc1NC(=O)c1cc(CC(C)C)on1,/,29%,-0.3%,/,/
CCOc1ccccc1N(CC(=O)Nc1ccc2c(c1)OCO2)S(C)(=O)=O,/,30%,0.1%,/,/
CC1c2[nH]c3ccccc3c2CCN1S(C)(=O)=O (stereo not drawn),/,-4%,1.4%,/,/
O=C(c1cccs1)N1CCN(Cc2ccncc2)CC1,i,2%,-0.4%,1.4e-08,i
COc1ccccc1C(=O)Nc1ccc(N2CCN(Cc3ccccc3)CC2)cc1,i,?,-1.9%,4.9e-09,i
O=C(COc1ccccc1O)Nc1ccccc1Cl,i,/,0.3%,1e-09,i

# One compound at a time (already shown). Values in the order: Resorufin autofl, TSHR agonist, AID923, A647 fluor, A488 fluor
# Record of O=C(c1cccs1)N1CCN(Cc2ccncc2)CC1 : i, 2%, -0.4%, 1.4e-08, i
# Record of CSc1ccccc1NC(=O)c1cc(CC(C)C)on1 : /, 29%, -0.3%, /, /
# Record of Cc1ccc(-n2ncc3c(=O)n(Cc4cccnc4)cnc32)cc1 : i, 18%, 0.4%, 2.1e-08, i

# Two consecutive records already listed, for reference:
SMILES,Resorufin autofl,TSHR agonist,AID923,A647 fluor,A488 fluor
COc1ccccc1C(=O)Nc1ccc(N2CCN(Cc3ccccc3)CC2)cc1,i,?,-1.9%,4.9e-09,i
O=C(COc1ccccc1O)Nc1ccccc1Cl,i,/,0.3%,1e-09,i

# The list goes on.
SMILES,Resorufin autofl,TSHR agonist,AID923,A647 fluor,A488 fluor
CC(=O)N1CCC2(CCCN(c3ccncc3)C2)CC1,i,-3%,-1.7%,3.7e-09,i
O=c1c(-c2cccc(F)c2)nc2cncnc2n1-c1ccccc1,i,?,14%,1e-09,i
Cc1nc2nc(-c3ccccc3)cc(=O)n2[nH]1,i,2%,0.4%,2.6e-08,i
CCOC(=O)c1oc2nc(C(C)C)c3c(c2c1N)CCC3,i,14%,0.0%,4.5e-08,i
C/C(=C\C(=O)Nc1nccs1)c1ccccc1,i,1%,-2.0%,1.8e-08,i
COc1cccc(C2C(C(=O)c3sc(C)nc3C)=C(O)C(=O)N2CCN2CCOCC2)c1 (stereo not drawn),i,-2%,2.8%,6.5e-09,i
COc1cc(C2CC(=O)N3CN(c4ccccc4C)CSC3=C2C#N)cc(OC)c1OC (stereo not drawn),i,15%,6.7%,1.2e-08,i
CCCCOc1ccccc1C1CC(=O)NC2=C1C(=O)CCC2 (stereo not drawn),i,12%,1.1%,2.8e-08,i
CCOC1(C(F)(F)F)NC(=O)N(Cc2ccc(OC)cc2)C1=O (stereo not drawn),i,14%[11.4 µM],-0.2%,1e-09,i
COc1ccc2cc3cc(C(=O)N4CCN(Cc5ccc6c(c5)OCO6)CC4)oc3nc2c1,i,/,2.2%,4.7e-09,i
COc1ccc(C(O)Cc2nc3ccccc3n2C)cc1OC (stereo not drawn),/,2%,0.1%,/,/
Fc1ccc(C2C3=C(Nc4ncnn42)c2ccccc2OC3c2ccncc2)cc1 (stereo not drawn),i,/,/,3e-08,i
CC(NC(=O)C1C2C=CC(C2)C1C(=O)O)c1ccccc1 (stereo not drawn),i,-3%,-1.2%,1.1e-08,i
Cc1cccc(NC(=O)c2c(C)cc(=O)oc2C)n1,i,/,/,1.2e-08,i
CCOC(=O)N1CCC(Nc2c(NCCCN3CCN(c4ccc(OC)cc4)CC3)c(=O)c2=O)CC1,i,?,-1.1%,2.5e-09,i
O=C1Nc2ccccc2C12OC1CCCCC1O2 (stereo not drawn),i,7%,3.9%,1.3e-09,i
Cc1cccc2cc(C#N)c(SCCN3CCCCC3)nc12,i,?,0.6%,4.6e-08,i
CCc1cc2c(=O)c(-c3nc4ccccc4n3C)coc2c(CN2CCN(C)CC2)c1O,i,/,2.4%,4.5e-09,i
CCOc1cc(C(=O)N(C)Cc2cc3cc(OC)ccc3[nH]c2=O)cc(OCC)c1OCC,i,3%,-0.4%,1e-09,i
CCS(=O)(=O)N1CCCC(C(=O)NCc2cccnc2)C1 (stereo not drawn),i,-1%,-2.2%,5e-09,i
O=C1CC(C(=O)N(c2cccc(F)c2)C(C(=O)NC2CCCC2)c2ccccn2)CS1 (stereo not drawn),i,-9%,-1.5%,1e-09,i
O=C(O)C1CCN(S(=O)(=O)c2ccc(Oc3ccccc3)cc2)CC1,i,8%,-2.9%,5.4e-08,i
CCc1nnc(NC(=O)c2c(O)c3c([nH]c2=O)CCCC3)s1,i,/,/,2.1e-08,i
CCOC(=O)Cc1csc(NC(=O)c2cccc(OC)c2)n1,i,1%,1.8%,1e-09,i
CCCC1C(c2ccc(OC)cc2)C(C#N)(C#N)C2(C#N)CC1(N)NC2=O (stereo not drawn),i,/,/,3.6e-08,i
CCOc1ccc(CN2CCN(C(=O)c3ccccc3)CC2)cc1,i,9%,-1.2%,2.8e-08,i
Cc1ccc(C(C(=O)NC2CCCC2)N2CCCCC2)cc1 (stereo not drawn),/,7%,2.4%,/,/
C=CCn1c(COc2ccc(CC)cc2)nnc1SC/C(O)=C(\C#N)c1nc2ccccc2[nH]1,i,6%,7.5%,6.4e-08,i
CCc1c(C)nc(SCC(=O)Nc2ccc(Br)cc2)[nH]c1=O,/,7%,-1.8%,/,/
Cc1ccc(S(=O)(=O)N2CCN(C(=O)CSc3nc4ccccc4o3)C2)cc1,i,/,0.4%,5.1e-08,i
COc1cccc(OC)c1Oc1ccc(C(F)(F)F)cn1,i,?,-1.5%,4e-08,i
Cc1cc(C)nc(SC(C)C(=O)Nc2ccc(S(N)(=O)=O)cc2)n1 (stereo not drawn),i,-7%,-0.1%,3.8e-09,i
Cc1cc(=O)oc2cc(OCC(=O)NCc3cccnc3)ccc12,i,/,/,1e-09,i
Cc1nc2ccc(Cl)cc2[nH]1,/,-1%,1.5%,/,/
COc1ccccc1C1(CC(=O)O)CCOC(C(C)C)C1 (stereo not drawn),i,-14%,1.5%,1e-09,i
N[C@H](Cn1ccc(=O)n(Cc2ccccc2C(=O)O)c1=O)C(=O)O,/,-4%,-0.7%,/,/
O=C(c1cccc(F)c1)N1CCC[C@@]2(CCN(Cc3ccccc3)C2)C1,i,?,1.3%,4.2e-09,i
Cc1cc(C(F)(F)F)nn1Cc1ccc(C(=O)NCc2ccco2)o1,i,7%,-1.9%,2.8e-09,i
CC1CCN(CCCNC(=O)c2ccc(CS(=O)(=O)Cc3ccccc3F)o2)CC1,i,-1%,1.0%,1e-09,i
O=C(O)c1cc2ccccc2c(Cc2cc3ccccc3c(C(=O)O)c2O)c1O (tested in a mixture with another compound),i,-7%[25.6 µM],-1.8%[25.7 µM],4e-08,i
Cc1cc(Nc2cccc(F)c2)n2ncnc2n1,/,5%,-1.3%,/,/
O=C(Cc1cccs1)N1CCCC(c2nc3c(nnn3Cc3ccccc3Cl)c(=O)[nH]2)C1 (stereo not drawn),i,?,-2.3%,4.2e-09,i
NC(N)=N/N=C(\c1ccc(Cl)cc1)C1CC1,i,1%[11.4 µM],0.7%[11.5 µM],4.4e-08,i
COCCOCC(O)CN1CCN(c2ccc(C)cc2)CC1 (stereo not drawn),i,-1%,-2.3%,3.2e-09,i
COC(=O)c1ccc(NS(=O)(=O)c2ccc(SC)cc2)cc1,i,/,-1.4%,6.5e-08,i
Cn1c(C(=O)N2CCCC(C(=O)NCCCc3ccccc3)C2)cc2sccc21 (stereo not drawn),i,?,1.3%,2.9e-08,i
CC(=O)c1cccc(N=C2C(=O)Nc3ccccc32)c1,i,0%,2.7%,2.1e-08,i
CN(Cc1ccco1)c1cc(-c2cccnc2)ncn1,i,10%,4.1%,2.1e-08,i
COCC(=O)N1CCC2(CCCN(C(=O)Nc3cccc(C#N)c3)C2)CC1,i,8%,0.4%,2.2e-08,i
CC(=O)NC(CCS(C)(=O)=O)C(=O)Nc1cccc(C)c1C (stereo not drawn),/,3%,0.2%,/,/
CCC(=O)Nc1nc2cc(OC)ccc2s1,i,0%,0.2%,2e-08,i
c1ccc(CCCNc2nnnc3ccccc23)cc1,i,21%[11.4 µM],4.7%[11.5 µM],1e-09,i
CC(C)(Oc1ccc(Cl)cc1)C(=O)Nc1ncccn1,/,6%,0.8%,/,/
O=C(Nc1ccc2c(c1)OCO2)c1c(Cl)nc2sccn12,i,-1%,-0.2%,1e-09,i
C(=N\n1cnnc1)/c1ccc2ncccc2c1,i,3%,0.0%,2.2e-09,i
Cc1cccc(C)c1NC(=O)CS(=O)CC(=O)NC1CCCc2ccccc21 (stereo not drawn),i,1%,0.9%,6.2e-09,i
COc1ccc(CCNC(=O)CCn2c(=O)oc3ccccc32)cc1OC,/,-1%,0.3%,/,/
COc1ccccc1C(=O)Nc1ccc(C(=O)O)cc1,i,-1%,-3.0%,1.2e-09,i
O=C(NC1=NCCS1)NC12CC3CC(CC(C3)C1)C2,i,-20%,-0.7%,1.4e-08,i
Cc1cnc(C(=O)Nc2cccc3cccnc23)cn1,i,9%,0.7%,1e-09,i
# Following part.
SMILES,Resorufin autofl,TSHR agonist,AID923,A647 fluor,A488 fluor
O=S(=O)(c1ccc(Sc2nnc3ccccn23)nc1)N1CCOCC1,i,1%,-0.7%,1e-09,i
CCOc1ccc(C(=O)NCC(C)CN(C)C)cc1OCC (stereo not drawn),i,-6%,-0.2%,1e-09,i
COc1ccc(-c2cc(C(=O)NC3CCCC3)no2)cc1OC,i,0%[11.4 µM],1.1%,1e-09,i
O=C(O)c1c(-c2ccccc2)c2oc3ccccc3c2[nH]c1=O,i,?,4.6%,1e-09,i
CC(NC(=O)Cn1cc2c(n1)CCCCC2)c1ccccc1 (stereo not drawn),/,8%,-3.5%,/,/
CCOc1ccccc1C(=O)NCCCCCC(=O)O,i,/,/,1e-09,i
O=C(CSc1nc2[nH]ncc2c(=O)n1-c1ccccc1)N1CCCc2ccccc21,i,10%,0.9%,3.1e-08,i
CCc1ccccc1NC(=O)CN1C(=O)C2CCCN2c2ncc(Cl)cc21 (stereo not drawn),/,?,-3.5%,/,/
O=C(Cn1ncc2c1-c1ccccc1OC2)N1CCc2ccccc21,/,15%,-0.3%,/,/
Cc1c(C(=O)NCC2CCCO2)oc2ccc(S(=O)(=O)N3CC(C)CC(C)C3)cc12 (stereo not drawn),/,7%,1.3%,/,/

# From PubChem BioAssay
